Screening data from PubChem.
Mtb H37Rv – M. tuberculosis H37Rv growth inhibitors, H37Rv strain (AID 1626) | inhibition, % at 10 µM; hits with a dose series show IC50 in µM | 220,000 compounds, 0.95% hits | M. tuberculosis H37Rv growth inhibition; higher % means a stronger effect;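 active means confirmed in a dose series; inconclusive means inhibition above 80% but not taken into the dose series; inactive means below 80% or under 30% at every dose of the series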;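 further: bacteria incubated seven days before Alamar blue readout; 0% = bacteria only wells and 100% = bacteria with antibiotic wells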
Arbovirus anti – antivirals against arbovirus infection, primary screen, cell-based, full library, 10K replicate subset; 200,000 compounds, 0.37% hits; arbovirus infection cell-based antiviral screen; AID 1251, 2008; inhibition, % at 10 µM;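 active means inhibition from about 30%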;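 further: bluetongue infection of BSR cells; cell survival read as ATP light after 72 h; 0% = infected wells without compound and 100% = uninfected wells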
RecA intein inh – Mtb RecA intein splicing inhibitors, primary screen, biochemical, fluorescence, HTS. Protein RecA (Mycobacterium tuberculosis (strain ATCC 25618 / H37Rv)), P9WHJ3. cell-free RecA intein splicing. inhibition, %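 (about 9 µM by stock and volumes)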. 290,000 compounds, 0.75% hits. AID 2221, 2009; in the data active means inhibition above about 30%; inconclusive means no clear call, values can overlap the other calls;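 further: 0% = vehicle wells and 100% = reference inhibitor control wells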
Target sequence (P9WHJ3 whole entry, looked up): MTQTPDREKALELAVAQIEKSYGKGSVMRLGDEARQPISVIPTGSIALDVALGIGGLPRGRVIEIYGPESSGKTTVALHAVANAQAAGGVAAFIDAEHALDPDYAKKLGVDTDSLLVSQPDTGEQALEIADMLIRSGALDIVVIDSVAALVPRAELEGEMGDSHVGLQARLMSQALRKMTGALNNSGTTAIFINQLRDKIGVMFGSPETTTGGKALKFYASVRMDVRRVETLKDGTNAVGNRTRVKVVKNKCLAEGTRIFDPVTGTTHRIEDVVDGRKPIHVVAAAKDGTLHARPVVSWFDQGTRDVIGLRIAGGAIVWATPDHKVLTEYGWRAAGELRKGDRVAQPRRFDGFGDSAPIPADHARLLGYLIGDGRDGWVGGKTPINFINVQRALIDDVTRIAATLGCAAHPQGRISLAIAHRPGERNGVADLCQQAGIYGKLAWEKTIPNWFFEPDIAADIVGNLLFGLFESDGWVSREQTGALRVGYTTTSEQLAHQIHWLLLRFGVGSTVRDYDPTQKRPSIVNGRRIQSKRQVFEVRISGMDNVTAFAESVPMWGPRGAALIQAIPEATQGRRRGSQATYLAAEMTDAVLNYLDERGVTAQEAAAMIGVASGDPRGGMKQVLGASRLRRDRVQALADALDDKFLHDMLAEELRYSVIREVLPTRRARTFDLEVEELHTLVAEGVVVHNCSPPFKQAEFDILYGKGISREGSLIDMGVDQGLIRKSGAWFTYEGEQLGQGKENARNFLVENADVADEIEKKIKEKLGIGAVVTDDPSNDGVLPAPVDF
YopH inh – YopH tyrosine phosphatase inhibitors, primary screen, biochemical, fluorescence Ex485/Em525; 140,000 compounds, 0.16% hits; inhibition, %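 (about 10 µM by stock and volumes)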; YopH tyrosine phosphatase [Yersinia enterocolitica];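 active means inhibition of 50% or more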;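 further: controls were vehicle for no effect and minimum signal wells for full effect; inactives centre near -20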
Mtb betalactam – beta-lactam sensitization of Mtb H37Rv, H37Rv. M. tuberculosis H37Rv growth with meropenem, percent inhibition; hits of this screen are not shown here. inhibition, % at 25 µM. 330,000 compounds, 0.27% hits. AID 434955, 2010;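 active means about 74% or more and at least 40 points above the plate without the antibiotic, then above 30% in a dose series; inconclusive means first-round hits that could not be retested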;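 further: growth measured after seven days incubation then overnight dye step; 0% = bacteria only wells and 100% = bacteria with antibiotic; twin plates without the antibiotic show which effects depend on it; some results filed as inactive read as strong as hits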
Arbovirus anti repeat – second read-out of Arbovirus anti, no call of its own (marks repeat the call); inhibition, %; measured here: 10K subset replicate screen; many hits read low in the repeat;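 first of two repeat runs on a subset; 0% = infected and 100% = uninfected wells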
* = called active by the depositor; ? = inconclusive; . = no result given. Only part of the results is shown; rates above refer to the full screens.

SMILES	Mtb H37Rv	Arbovirus anti	RecA intein inh	YopH inh	Mtb betalactam	others
Cc1ccc2sc(N3CCN(C(=O)C4=COCCO4)CC3)nc2c1C	.	.	4.9	.	42
O=C(NC(=S)Nc1cccc([N+](=O)[O-])c1)C1CCCC1	.	.	3.3	.	6
Cc1cc(NC(=O)Nc2cccc(C)c2C)no1	9%	3	-0.8	.	-7
Cc1onc(-c2ccccc2Cl)c1C(=O)Nc1ccc2c(c1)OCO2	10%	-5	0.6	-26	-11
O=C(c1ccc2c(=O)n3c(nc2c1)CCC3)N1CCN(S(=O)(=O)c2cccc(F)c2)CC1	.	.	0.1	.	-11
O=c1[nH]c(=O)n(CCC2=CCCCC2)c(O)c1/C=N/N1CCOCC1	16%	.	-2.4	.	0
CCOc1ccc(N=C2C(=O)N(CN3CCOCC3)c3ccccc32)cc1	?	-8	4.2	-49	11
Cc1nnc(SCc2ccc(C(=O)Nc3cc(Cl)ccc3C)cc2)s1	29%	5	2.2	-32	.
COc1ccc(OC)c(/C=N/NC(=O)c2ccc3nc[nH]c3c2)c1	-7%	.	0.7	.	-7
COc1ccccc1Oc1coc2c(CN(C)C)c(O)ccc2c1=O	-12%	2	-7.1	-27	0

Of the compounds above, two contain a Cl atom.
SMILES	Mtb H37Rv	Arbovirus anti	RecA intein inh	YopH inh	Mtb betalactam	others
Cc1onc(-c2ccccc2Cl)c1C(=O)Nc1ccc2c(c1)OCO2	10%	-5	0.6	-26	-11
Cc1nnc(SCc2ccc(C(=O)Nc3cc(Cl)ccc3C)cc2)s1	29%	5	2.2	-32	.

Other structures
SMILES	Mtb H37Rv	Arbovirus anti	RecA intein inh	YopH inh	Mtb betalactam	others
CP(=O)(Nc1ccccc1)C(Cl)(Cl)Cl (configuration not stated)	-1%	8	-0.8	.	2
CCCCC(O)(CCCC)C(=O)NN(C(=O)OC)c1ccc(C)cc1	10%	.	-1.9	.	-2
COc1ccc(NC(=S)N2CCc3cc(OC)c(OC)cc3C2)cc1	2%	.	-1.4	.	1
COc1cc(S(=O)(=O)NCC2CCCO2)c(OC)cc1Cl (configuration not stated)	5%	0	21	-32	-6
O=C(CSc1nnc2ccccn12)Nc1ccccc1C(=O)O	3%	1	0.5	.	-8
Cc1ccc(C)c(C(=O)CN2C3=NCCCN3c3ccccc32)c1	-6%	10	0.8	22	0
O=C(NCCN1CCOCC1)c1cccs1	7%	13	1.3	-36	-5
Cc1cccc2cc(CN(Cc3nnnn3C3CCCC3)C3CCCCC3)c(=O)[nH]c12	6%	.	.	-31	4
CC(C(=O)Nc1ccccc1F)N1C(=O)c2ccccc2C1=O (configuration not stated)	-9%	0	-0.4	-50	-8
CCOC(=O)N1CCN(C(=O)COC(=O)CNC(=O)c2ccc(C)cc2)CC1	.	.	1.5	.	-14
CCOC(=O)N1CCC(N2C(=O)c3ccccc3C2Nc2ccc3c(C)cc(=O)oc3c2)CC1 (configuration not stated)	-3%	3	-11	-33	-9
O=C(NCc1ccc(Cl)cc1)c1ccc(CNc2c(N3CCCC3)c(=O)c2=O)cc1	4%	.	-1.4	.	2
CCOC(=O)c1sc(NC(=O)CSc2ncn[nH]2)c(C#N)c1C	89%	5	-0.5	-9	95
CCCn1cc(S(=O)(=O)CC(=O)Nc2ccc(OCC)cc2)c2ccccc21	-15%	3	.	-26	1	Arbovirus anti repeat=6
CNC(=O)c1nnc(Cc2ccc(F)cc2)o1	-6%	0	-2.0	-55	-1	Arbovirus anti repeat=4
CC(=O)NCCc1cc2cc(C)c(C)cc2[nH]c1=O	.	0	1.9	-44	0
COc1cccc(NC(=O)c2cc([N+](=O)[O-])ccc2N2CCN(C)CC2)c1	-7%	0	-0.9	.	-2
CC(=O)NC(CC(=O)NC1CCCCC1)c1ccccc1 (configuration not stated)	-4%	-10	0.8	-25	0
COc1ccc(C2=NN(c3nc(C(=O)O)cs3)C(O)(C(F)(F)F)C2)c(OC)c1 (configuration not stated)	1%	10	3.0	.	-2
Cc1cc(=O)[nH]c(SCC(=O)Nc2ccc(Cl)cn2)n1	-12%	2	1.2	-24	0

Of the compounds above, these contain an aryl methoxy group.
SMILES	Mtb H37Rv	Arbovirus anti	RecA intein inh	YopH inh	Mtb betalactam	others
COc1ccc(OC)c(/C=N/NC(=O)c2ccc3nc[nH]c3c2)c1	-7%	.	0.7	.	-7
COc1ccccc1Oc1coc2c(CN(C)C)c(O)ccc2c1=O	-12%	2	-7.1	-27	0
COc1ccc(NC(=S)N2CCc3cc(OC)c(OC)cc3C2)cc1	2%	.	-1.4	.	1
COc1cc(S(=O)(=O)NCC2CCCO2)c(OC)cc1Cl (configuration not stated)	5%	0	21	-32	-6
COc1cccc(NC(=O)c2cc([N+](=O)[O-])ccc2N2CCN(C)CC2)c1	-7%	0	-0.9	.	-2
COc1ccc(C2=NN(c3nc(C(=O)O)cs3)C(O)(C(F)(F)F)C2)c(OC)c1 (configuration not stated)	1%	10	3.0	.	-2

The main list resumes; the 6 compounds before the break are reprinted first.
SMILES	Mtb H37Rv	Arbovirus anti	RecA intein inh	YopH inh	Mtb betalactam	others
CNC(=O)c1nnc(Cc2ccc(F)cc2)o1	-6%	0	-2.0	-55	-1	Arbovirus anti repeat=4
CC(=O)NCCc1cc2cc(C)c(C)cc2[nH]c1=O	.	0	1.9	-44	0
COc1cccc(NC(=O)c2cc([N+](=O)[O-])ccc2N2CCN(C)CC2)c1	-7%	0	-0.9	.	-2
CC(=O)NC(CC(=O)NC1CCCCC1)c1ccccc1 (configuration not stated)	-4%	-10	0.8	-25	0
COc1ccc(C2=NN(c3nc(C(=O)O)cs3)C(O)(C(F)(F)F)C2)c(OC)c1 (configuration not stated)	1%	10	3.0	.	-2
Cc1cc(=O)[nH]c(SCC(=O)Nc2ccc(Cl)cn2)n1	-12%	2	1.2	-24	0
CSc1cccc(NC(=O)c2cccc3cccnc23)c1	.	.	9.6	.	13
COc1ccc(NC(=O)CCN2CC(C)OC(C)C2)c(OC)c1 (configuration not stated)	-5%	-2	-1.0	-15	-1
O=C(NN1CCCCC1)c1cnn2c(C(F)F)cc(-c3ccccc3)nc12	9%	-2	-2.0	.	-5
CCc1ccc(S(=O)(=O)c2n[nH]n3c2nc(=O)c2ccccc23)cc1	-14%	14	-4.7	8	8
CCOC(=O)c1[nH]c(C)c(C(=O)OC)c1C	-2%	.	-0.1	.	-1
CSc1ccccc1NC(=S)Nc1cccc(C(F)(F)F)c1	-3%	11	6.7	-25	0
CC(=O)N(/N=C1\Sc2ccccc2C1=O)c1ccccc1C	24%	-6	14	12	18
C=CCn1c(SCC(=O)N2CCOCC2)nc2sc(C)c(C)c2c1=O	.	.	0.5	.	6
O=C1CCCC(O)=C1N=Nc1ccc(C(=O)O)cc1	-12%	.	-3.8	.	-11
COc1cc2c(cc1OC)C(c1ccc(Br)cc1)NCC2 (configuration not stated)	.	.	-7.0	.	-3
CCCCS(=O)(=O)N1CCC(C(=O)Oc2ccc(Cl)cc2)CC1	.	.	0.8	.	5
CCOc1ccc(N2C(=O)/C(=C\c3cccs3)C(=O)NC2=S)cc1	-8%	-1	0.7	.	-9
CCCCCc1nc2sc3c(c2c(=O)n1NC(=O)c1ccc([N+](=O)[O-])cc1)CC(C)(C)OC3	-3%	-11	4.2	-35	3
OC[C@@H](O)[C@@H](O)[C@H](O)[C@H](O)CO	.	.	-0.7	.	3
Cc1c(C(=O)OCC(=O)N2CC(=O)Nc3ccccc32)oc2ccc(Br)cc12	.	2	-0.3	-10	35
CCCC(C)NC(=O)c1ccc2[nH]c3c(c2c1)CC(C)CC3 (configuration not stated)	12%	-7	.	-71	4
Cc1ccc(CN(CC(=O)NC2CCCCC2)C(=O)c2csnn2)cc1	.	.	-2.9	.	2
O=C(COC(=O)/C=C/c1ccc(Cl)cc1)Nc1ccccc1-c1ccccc1	-1%	-5	-0.3	-24	-4
CC(=O)N1CCN(C(=O)CCCNC(=O)c2ccc(Cl)cc2)CC1	.	.	9.5	.	-10
COc1ccccc1CCNC(=O)c1cc(-c2ccncc2)nc2ccc(Br)cc12	1%	0	-1.1	.	.
N#Cc1nc(-c2ccco2)oc1N1CCCC1	-14%	2	0.8	-5	-6
CCOc1ccc(NC(=O)C(C)NS(=O)(=O)c2ccc(NC(C)=O)cc2)cc1 (configuration not stated)	2%	6	-2.3	.	-6
O=C(NC1CCSc2ccccc21)c1c(F)cccc1Cl (configuration not stated)	.	.	-3.0	.	11
COc1cc(OC)cc(OC(=O)c2cccc(S(=O)(=O)N3CCN(C)CC3)c2)c1	.	.	-0.7	.	-4
CCOC(=O)c1ccccc1NS(=O)(=O)c1ccc(S(=O)(=O)N2CCCC2)cc1	-9%	9	0.9	-32	-4
Cc1cc(C(=O)COC(=O)c2ccc[nH]c2=O)c(C)n1-c1ccc(Br)cc1	1%	-3	-0.6	-16	-7
NC1=NC(c2cn[nH]c2-c2cccc(F)c2)n2c(nc3ccccc32)N1 (configuration not stated)	4%	5	-1.5	.	4
Cc1ccc(C)c(NC(=O)NNC(=O)c2cc3occc3[nH]2)c1	.	.	0.3	.	-4
O=C(O)c1cnn(-c2nc(-c3ccc(F)cc3)cs2)c1C(F)(F)F	2%	11	1.7	.	-1
Clc1ccc2nc3c(c(-c4ccccc4)c2c1)CNCC3	-6%	-29	-1.0	-13	-1
CCOc1ccc(S(=O)(=O)N(C)c2ccc(OCC(=O)NCc3ccco3)cc2)cc1	4%	-8	1.6	-10	-4
c1ccc2c(c1)ncn2CCCOc1ccc2c(c1)CCC2	3%	4	8.7	4	42
O=C1CN(C(=O)c2ccccc2F)c2ccccc2N1	-1%	-7	-0.9	-7	1
COC(=O)c1c(NC(=O)CSc2nnc(-c3cccnc3)n2Cc2ccco2)sc(C)c1C	-9%	10	3.6	-32	-4
CC(=O)Nc1ccc2c(c1)N(C(C)=O)c1ccccc1CC2	4%	-4	-0.6	.	-12
Cc1cc(NCc2ccccc2)nc2ccccc12	3%	-2	4.0	-36	18
Cc1ccc(S(=O)(=O)N2CCN(C(=O)Cc3sc(C)nc3-c3ccc(F)cc3)CC2)c(C)c1	.	.	4.0	.	-3
Cc1ccc(NC(=O)c2cc(S(=O)(=O)N3CCOCC3)cn2C)cc1Cl	.	.	0.3	.	10
CCc1ccc2oc(=O)cc(CN3CCN(Cc4ccccc4)CC3)c2c1	.	.	0.2	.	10
